Compound activity from PubChem BioAssay.
rRNA inh HTS: inhibitors of bacterial rRNA selective over humanized ribosomes; GFP signal change (wild-type ribosome), % (no concentration beside the values); 1.6% of 350,000 active; E. coli WT GFP vs humanized-ribosome RFP mutants, fluorescence, 24 h; active compounds read low; DMSO median 0, no signal -100;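 active = significant combined selectivity score with lowered wild-type GFP, culture density cut under 30%, mutant RFP and density less affected; inactive = any of these conditions unmet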; also: one replicate is shown; some compounds called inactive have numbers as strong as hits
FGF22 binding: binders of recombinant human FGF22 by thermal shift. Q9HCT0. 1.5% of 340,000 active. calls only at 9.99 µM. AID 651658. SYPRO orange fluorescence; percent of sucrose octasulfate shift, DMSO zero;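 active = melting point raised past a set limit in the mean and every replicate; three in four hits are not shown here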
Target sequence (Q9HCT0 whole entry, looked up): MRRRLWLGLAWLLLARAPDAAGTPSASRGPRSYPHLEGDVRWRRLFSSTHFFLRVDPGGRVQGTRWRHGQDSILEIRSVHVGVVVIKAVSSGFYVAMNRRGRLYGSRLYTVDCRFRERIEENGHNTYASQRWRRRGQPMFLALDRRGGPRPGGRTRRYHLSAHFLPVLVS
rRNA inh HTS OD600: also measured in rRNA inh HTS; calls as there; OD600 change, %; measured here: OD600 growth;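 optical density of the mix in the first replicate; 0 = DMSO median and -100 = no signal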
rRNA inh HTS RFP: also measured in rRNA inh HTS; calls as there; RFP signal change, %; measured here: RFP humanized mutant strains;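 first replicate; 0 = DMSO median and -100 = no signal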
* hit, by the source's call; i = inactive. The list is partial (hit frequency here may not be typical).

Below each compound – rRNA inh HTS, rRNA inh HTS OD600, rRNA inh HTS RFP, FGF22 binding
1: C[C@H]1CN([C@@H](C)CO)C(=O)c2cc(N(C)C)ccc2O[C@@H]1CN(C)S(=O)(=O)c1ccccc1
  -4.4, 2.4, -0.2, i
2: COCC#Cc1cnc2c(c1)C(=O)N([C@@H](C)CO)C[C@@H](C)[C@H](CN(C)C(=O)Nc1ccc(OC)cc1)O2
  1.5, 5.3, -1.1, i
3: O=C(C[C@H]1CC[C@@H]2[C@H](COC[C@H](O)CN2Cc2ccc3c(c2)OCO3)O1)N1CCCCC1
  -5.4, -3.9, -1.9, i
4: C[C@H](CO)N1C[C@H](C)[C@@H](CN(C)Cc2ccc(-c3ccccc3)cc2)Oc2ccc(NC(=O)Nc3ccc4c(c3)OCO4)cc2CC1=O
  -1.0, 7.7, 1.1, i
5: O=S(=O)(N[C@H]1CC[C@H](CCn2cc(-c3cccnc3)nn2)O[C@@H]1CO)c1ccc(F)cc1
  1.0, 0.6, -2.5, i
6: C[C@H]1CN([C@@H](C)CO)C(=O)c2cc(-c3ccccc3)cnc2O[C@H]1CN(C)C(=O)C1CCCCC1
  -5.1, -0.6, -2.0, i
7: CCCC#Cc1cnc2c(c1)C(=O)N([C@H](C)CO)C[C@@H](C)[C@H](CN(C)C(=O)Nc1c(C)noc1C)O2
  -0.1, 1.2, -1.8, i
8: CO[C@@H]1CN(C)C(=O)c2ccc(NC(C)=O)cc2OC[C@H](C)N(C(=O)Cc2ccccn2)C[C@H]1C
  0.9, 7.0, -0.3, i
9: C[C@H](CO)N1C[C@H](C)[C@H](CN(C)Cc2ccc(-c3ccccc3)cc2)Oc2c(NC(=O)Nc3ccc(C(F)(F)F)cc3)cccc2C1=O
  5.7, 7.1, 4.0, i
10: C[C@H](CO)N1C[C@H](C)[C@@H](CN(C)S(=O)(=O)c2ccc(Cl)cc2)Oc2ccc(NS(C)(=O)=O)cc2CC1=O
  -2.3, -13.0, 0.1, i
11: CCC(=O)N1CCCCN2[C@H](CO)[C@@H](c3ccc(-c4cccc(C#N)c4)cc3)[C@H]2C1
  -2.1, 0.3, -1.7, i
12: C[C@H]1CN([C@@H](C)CO)C(=O)c2cc(NC(=O)Nc3ccc(C(F)(F)F)cc3)ccc2O[C@@H]1CN(C)Cc1ccc(Cl)c(Cl)c1
  2.8, -1.5, 0.8, i
13: N#C[C@H]1[C@H](c2ccc(C#Cc3ccccc3F)cc2)[C@@H](CO)N1C(=O)c1cccnc1
  -12.1, -28.1, 7.2, i
14: CCS(=O)(=O)Nc1ccc2c(c1)C(=O)N(C)C[C@@H](OC)[C@@H](C)CN[C@H](C)CO2
  4.9, 4.8, -3.3, i
15: Cc1noc(C)c1NC(=O)N(C)C[C@@H]1OCCCC[C@H](C)Oc2ccc(NS(=O)(=O)c3ccc(F)cc3)cc2C(=O)N([C@@H](C)CO)C[C@@H]1C
  -1.8, -1.2, 1.8, i
16: O=C(C[C@@H]1C[C@@H]2c3cc(NC(=O)Nc4ccccc4F)ccc3O[C@@H]2[C@H](CO)O1)NCC1CC1
  -1.7, -6.7, -1.0, i
17: C[C@@H]1CN([C@H](C)CO)C(=O)Cc2cc(NC(=O)Cn3cnnn3)ccc2O[C@H]1CN(C)S(=O)(=O)c1ccccc1
  2.2, 3.0, -2.1, i
18: O=C(N[C@H]1CC[C@@H](CCNS(=O)(=O)c2ccccc2Cl)O[C@H]1CO)c1ccccc1
  3.0, 6.1, -2.0, i
19: COCC(=O)Nc1ccc2c(c1)C(=O)N(C)C[C@@H](OC)[C@@H](C)CN(C(=O)Cc1cccnc1)[C@H](C)CO2
  5.1, 5.8, -1.1, i
20: COc1cccc(NC(=O)N(C)C[C@H]2OCc3ccccc3-c3c(n(C)c4ccccc34)C(=O)N([C@@H](C)CO)C[C@@H]2C)c1
  -9.9, -16.5, 7.7, i
21: C[C@H](O)C#Cc1ccc([C@H]2[C@H]3CN(C(=O)c4cccc(F)c4)CCCCN3[C@H]2CO)cc1
  1.0, -4.6, 2.8, i
22: COC(=O)C[C@H]1CC[C@@H](NC(=O)c2ccccc2)[C@@H](CO)O1
  0.4, 0.0, -0.1, i
23: CC(C)NC(=O)N(C)C[C@H]1OCCCC[C@H](C)Oc2ccc(NS(=O)(=O)c3ccccc3)cc2C(=O)N([C@H](C)CO)C[C@@H]1C
  -5.6, -2.8, 3.5, i
24: C[C@H](NC(=O)N(C)C[C@@H]1OCc2ccccc2-c2c(n(C)c3ccccc23)C(=O)N([C@@H](C)CO)C[C@@H]1C)c1ccccc1
  -0.9, -3.6, 1.8, i
25: Cc1ccc(S(=O)(=O)Nc2ccc3c(c2)C(=O)N([C@@H](C)CO)C[C@H](C)[C@H](CN(C)S(=O)(=O)c2c(C)noc2C)OCCCC[C@@H](C)O3)cc1
  -2.2, -0.6, 2.4, i
26: O=C(Nc1cc(F)ccc1F)N[C@H]1CC[C@H](CC(=O)N2CCc3ccccc3C2)O[C@@H]1CO
  3.3, 12.7, 1.6, i
27: C[C@H]1CCCCO[C@@H](CN(C)Cc2ccncc2)[C@@H](C)CN([C@@H](C)CO)C(=O)c2cc(NS(=O)(=O)c3ccc(Cl)cc3)ccc2O1
  -3.8, -21.1, 5.6, i
28: O=C(Nc1ccccc1F)N1C[C@@H]2[C@H](c3ccccc31)[C@H](CO)N2C(=O)C1CCOCC1
  2.2, 3.4, -2.2, i
29: CN1C(=O)c2cc(NC(=O)Nc3ccccc3F)ccc2OC[C@H]2O[C@H](CC(=O)NCc3ccc(-c4ccccc4)cc3)CC[C@H]21
  -0.3, 0.9, 0.6, i
30: COc1ccc(S(=O)(=O)Nc2ccc3c(c2)C(=O)N([C@@H](C)CO)C[C@@H](C)[C@H](CN(C)CC2CC2)O3)cc1
  -2.3, -6.3, -2.3, i
31: C[C@@H]1CN([C@H](C)CO)C(=O)Cc2cc(NS(=O)(=O)c3cccs3)ccc2O[C@@H]1CN(C)C(=O)NC1CCCCC1
  0.1, 2.1, -1.8, i
32: CCC(=O)N[C@H]1C=C[C@@H](CC(=O)NCC2CCCCC2)O[C@@H]1CO
  0.9, 2.1, -3.2, i
33: O=C(C[C@@H]1CC[C@H]2[C@@H](COC[C@H](O)CN2S(=O)(=O)c2cccc(F)c2)O1)NCCCN1CCOCC1
  -3.0, 2.7, -2.1, i
34: COc1ccc(S(=O)(=O)Nc2ccc3c(c2)CC(=O)N([C@H](C)CO)C[C@@H](C)[C@@H](CN(C)C(=O)Nc2ccccc2)O3)cc1
  2.5, 3.2, -0.3, i
35: CC(C)NC(=O)Nc1ccc2c(c1)C(=O)N([C@H](C)CO)C[C@H](C)[C@H](CN(C)C(=O)NC(C)C)O2
  2.4, 7.8, -0.7, i
36: C[C@@H]1CN([C@@H](C)CO)C(=O)c2cc(C#CC3CCCCC3)cnc2O[C@H]1CN(C)C(=O)C1CCCCC1
  5.1, -0.8, 1.0, i
37: COc1ccc(CN(C)C[C@H]2Oc3c(NC(=O)Nc4ccc(F)cc4)cccc3C(=O)N([C@@H](C)CO)C[C@H]2C)cc1
  1.9, 4.8, 1.3, i
38: C[C@@H]1CN([C@@H](C)CO)C(=O)c2cc(NS(=O)(=O)c3cccs3)ccc2O[C@@H](C)CCCCO[C@H]1CN(C)C
  1.6, 3.1, -3.2, i
39: CCNC[C@@H]1[C@H](c2ccc(-c3ccc(F)cc3)cc2)[C@H](CO)N1S(C)(=O)=O
  -1.8, -6.4, 7.1, i
40: COc1ccccc1-c1cnc2c(c1)C(=O)N([C@@H](C)CO)C[C@@H](C)[C@H](CN(C)CC1CCOCC1)O2
  6.0, 8.7, -0.2, i

Four of these compounds, reformatted.
5. O=S(=O)(N[C@H]1CC[C@H](CCn2cc(-c3cccnc3)nn2)O[C@@H]1CO)c1ccc(F)cc1
25. Cc1ccc(S(=O)(=O)Nc2ccc3c(c2)C(=O)N([C@@H](C)CO)C[C@H](C)[C@H](CN(C)S(=O)(=O)c2c(C)noc2C)OCCCC[C@@H](C)O3)cc1
13. N#C[C@H]1[C@H](c2ccc(C#Cc3ccccc3F)cc2)[C@@H](CO)N1C(=O)c1cccnc1
30. COc1ccc(S(=O)(=O)Nc2ccc3c(c2)C(=O)N([C@@H](C)CO)C[C@@H](C)[C@H](CN(C)CC2CC2)O3)cc1

assay / compound	5	25	13	30
rRNA inh HTS	1.0	-2.2	-12.1	-2.3
rRNA inh HTS OD600	0.6	-0.6	-28.1	-6.3
rRNA inh HTS RFP	-2.5	2.4	7.2	-2.3
FGF22 binding	i	i	i	i

Other results
Below each compound – rRNA inh HTS, rRNA inh HTS OD600, rRNA inh HTS RFP, FGF22 binding
41: CN(C)C(=O)c1ccc(-c2ccc([C@@H]3[C@@H](C#N)N(C(=O)Nc4ccccc4F)[C@H]3CO)cc2)cc1
  -4.1, 1.4, 1.4, i
42: CC(C)CC#Cc1cnc2c(c1)C(=O)N([C@@H](C)CO)C[C@@H](C)[C@@H](CN(C)C(=O)Nc1cccc(F)c1)O2
  -5.2, 6.1, 6.4, i
43: CCC(=O)Nc1ccc2c(c1)C(=O)N(C)[C@H]1CC[C@H](CC(=O)Nc3cccc(OC)c3)O[C@@H]1CO2
  -1.3, -5.0, -0.3, i
44: CNC[C@H]1Oc2ccc(NC(=O)Cn3cnnn3)cc2C(=O)N([C@H](C)CO)C[C@H]1C
  0.1, 5.2, -3.9, i
45: N#C[C@H]1[C@H](c2ccc(C#Cc3cccc(F)c3)cc2)[C@@H](CO)N1C(=O)C1CCCC1
  1.5, 6.1, -1.6, i
46: COCC(=O)Nc1ccc2c(c1)OC[C@@H](C)N(C(=O)c1ccccc1F)C[C@H](C)[C@@H](OC)CN(C)C2=O
  1.3, 2.9, 0.4, i
47: O=C(C[C@@H]1CC[C@H]2[C@@H](COC[C@@H](O)CN2Cc2cccc(F)c2)O1)NCC1CCCCC1
  -0.4, 12.1, 4.4, i
48: CCCc1cn(CC[C@H]2CC[C@@H](NC(=O)C3CCC3)[C@H](CO)O2)nn1
  -1.1, -2.4, -0.5, i
49: COc1cccc(-c2ccc3n(c2=O)C[C@@H]2[C@@H](CO)[C@H](C(=O)N(C)C)[C@H]3N2Cc2cncnc2)c1
  2.0, 9.5, -1.8, i
50: CN1c2ccc(Br)cc2[C@H]2[C@H](CCN2C(=O)C2CCOCC2)[C@H]1CO
  -2.1, -2.1, -4.8, i
51: O=C(Cc1ccccc1)N[C@@H]1C=C[C@@H](CC(=O)N2CCCCC2)O[C@H]1CO
  8.0, 4.0, 0.0, i
52: C[C@@H]1CCCCO[C@H](CN(C)Cc2ccncc2)[C@H](C)CN([C@H](C)CO)C(=O)c2cc(NC(=O)c3ccccc3)ccc2O1
  -0.9, -5.2, 1.4, i
53: CN(C[C@H]1N[C@@H](CO)[C@@H]1c1ccc(C2=CCCC2)cc1)C(=O)c1ccccn1
  0.4, -2.0, 4.0, i
54: CCS(=O)(=O)N1CCC2(CC1)CN(C)[C@H](CO)c1c2c2ccc(OC)cc2n1C
  0.3, -11.4, -0.4, i
55: CC(C)OC(=O)N(C)C[C@@H]1OCc2ccccc2-c2ccccc2C(=O)N([C@H](C)CO)C[C@H]1C
  -0.7, -3.7, -5.0, i
56: O=C(N[C@@H]1CC[C@@H](CC(=O)N2CCOCC2)O[C@@H]1CO)c1ccc2c(c1)OCO2
  -2.1, -3.3, -1.1, i
57: COc1ccc(C#Cc2ccc3c(c2)[C@@H]2[C@@H](CCN2C(=O)c2ccncc2)[C@@H](CO)N3C)cc1
  -0.2, 5.5, 6.9, i
58: CO[C@H]1CN(C)C(=O)c2ccc(NC(=O)c3ccccc3)cc2OC[C@H](C)N(C)C[C@H]1C
  1.2, 3.6, -0.4, i
59: C[C@@H]1CN([C@H](C)CO)S(=O)(=O)c2ccc(C#C[C@@H](C)O)cc2O[C@H]1CN(C)Cc1ccncc1
  -2.4, -10.1, -1.2, i
60: C[C@H](CO)N1C[C@H](C)[C@@H](CN(C)CC2CCCCC2)Oc2ccc(NC(=O)NC3CCCCC3)cc2C1=O
  0.7, -6.5, 1.0, i
61: CN(C)C(=O)c1cccc(-c2ccc3c(c2)[C@@H]2[C@@H](CCN2C(=O)Nc2cccc(F)c2)[C@H](CO)N3C)c1
  -9.1, -6.2, -5.7, i
62: COc1ccc(S(=O)(=O)N[C@@H]2C=C[C@H](CC(=O)N3CCC(Cc4ccccc4)CC3)O[C@@H]2CO)cc1
  -7.1, -25.4, 6.0, i
63: C/C=C/c1ccc2c(c1)O[C@@H](CN(C)C(=O)Cc1ccccn1)[C@H](C)CN([C@H](C)CO)S2(=O)=O
  -1.5, 0.7, -2.3, i
64: CO[C@@H]1CN(C)C(=O)c2cc(NC(C)=O)ccc2OC[C@H](C)N(C(=O)C2CCCCC2)C[C@@H]1C
  -1.0, 4.6, 0.9, i
65: COc1cccc(S(=O)(=O)N[C@@H]2C=C[C@H](CC(=O)NC3Cc4ccccc4C3)O[C@H]2CO)c1
  -7.5, -6.0, -0.6, i
66: Cn1cnc(S(=O)(=O)N[C@@H]2C=C[C@@H](CC(=O)NCC3CCCCC3)O[C@H]2CO)c1
  -0.8, 4.3, -1.1, i
67: O=C(Nc1cccc(F)c1)N1C[C@H]2[C@@H](c3ccccc31)[C@@H](CO)N2C(=O)Cc1ccccc1
  -2.0, -1.7, 0.1, i
